# Mtb bLac sens: beta-lactam sensitization of Mtb H37Rv, H37Rv. M. tuberculosis H37Rv growth with meropenem, percent inhibition; hits of this screen are not shown here. inhibition, % at 25 µM. 330,000 compounds, 0.27% hits;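 active = about 74% or more and at least 40 points above the plate without the antibiotic, then above 30% in a dose series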;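 note: growth measured after seven days incubation then overnight dye step; 0% = bacteria only wells and 100% = bacteria with antibiotic; twin plates without the antibiotic show which effects depend on it; some results filed as inactive read as strong as hits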
# YopH PTP inh: YopH tyrosine phosphatase inhibitors, primary screen, biochemical, fluorescence Ex485/Em525; YopH tyrosine phosphatase [Yersinia enterocolitica]; inhibition, %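 (about 10 µM by stock and volumes)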; 140,000 compounds, 0.16% hits; AID 898, 2007;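 active = inhibition of 50% or more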;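 note: controls were vehicle for no effect and minimum signal wells for full effect; inactives centre near -20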
# Arbovirus anti: antivirals against arbovirus infection, primary screen, cell-based, full library, 10K replicate subset; 200,000 compounds, 0.37% hits; arbovirus infection cell-based antiviral screen; inhibition, % at 10 µM;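 active = inhibition from about 30%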;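 note: bluetongue infection of BSR cells; cell survival read as ATP light after 72 h; 0% = infected wells without compound and 100% = uninfected wells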
# RecA splice inh: Mtb RecA intein splicing inhibitors, primary screen, biochemical, fluorescence, HTS | Protein RecA (Mycobacterium tuberculosis (strain ATCC 25618 / H37Rv)), P9WHJ3 | inhibition, %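 (about 9 µM by stock and volumes)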 | cell-free RecA intein splicing | 290,000 compounds, 0.75% hits; in the data active = inhibition above about 30%;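 note: 0% = vehicle wells and 100% = reference inhibitor control wells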
# Target sequence (P9WHJ3 whole entry, looked up, canonical isoform): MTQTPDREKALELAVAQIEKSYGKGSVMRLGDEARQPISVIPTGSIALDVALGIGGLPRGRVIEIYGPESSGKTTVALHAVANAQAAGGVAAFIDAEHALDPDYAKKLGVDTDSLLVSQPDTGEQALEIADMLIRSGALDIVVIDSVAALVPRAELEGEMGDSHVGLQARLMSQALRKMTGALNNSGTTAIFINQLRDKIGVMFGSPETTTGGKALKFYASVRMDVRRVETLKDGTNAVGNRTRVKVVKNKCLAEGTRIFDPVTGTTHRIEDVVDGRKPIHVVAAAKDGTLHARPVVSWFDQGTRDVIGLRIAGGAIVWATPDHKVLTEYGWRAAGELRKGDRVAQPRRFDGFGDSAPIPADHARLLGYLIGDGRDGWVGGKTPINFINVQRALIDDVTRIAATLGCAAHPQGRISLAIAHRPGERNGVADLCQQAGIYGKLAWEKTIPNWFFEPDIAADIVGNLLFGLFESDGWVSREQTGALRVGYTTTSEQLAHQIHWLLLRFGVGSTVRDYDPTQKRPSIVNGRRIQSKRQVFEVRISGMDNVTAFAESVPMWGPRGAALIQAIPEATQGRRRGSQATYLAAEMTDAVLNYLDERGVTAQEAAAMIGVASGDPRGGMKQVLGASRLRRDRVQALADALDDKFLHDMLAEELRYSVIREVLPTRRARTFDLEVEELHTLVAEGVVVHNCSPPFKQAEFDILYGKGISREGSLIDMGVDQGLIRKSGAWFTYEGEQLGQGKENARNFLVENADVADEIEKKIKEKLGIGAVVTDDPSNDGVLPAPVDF
# Mtb growth: M. tuberculosis H37Rv growth inhibitors, H37Rv strain (AID 1626); M. tuberculosis H37Rv growth inhibition; higher % means a stronger effect; inhibition, % at 10 µM; hits with a dose series show IC50 in µM; 220,000 compounds, 0.95% hits;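 active = confirmed in a dose series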;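 note: bacteria incubated seven days before Alamar blue readout; 0% = bacteria only wells and 100% = bacteria with antibiotic wells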
# Arbovirus anti repeat: second read-out of Arbovirus anti, no call of its own (marks repeat the call); inhibition, %; measured here: 10K subset replicate screen; many hits read low in the repeat;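 first of two repeat runs on a subset; 0% = infected and 100% = uninfected wells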
# Numbers without * were called inactive; / = no result given. These rows are one share of the data, so the mix of outcomes need not match the whole.
SMILES,Mtb bLac sens,YopH PTP inh,Arbovirus anti,RecA splice inh,Mtb growth,others
Cc1cc(C)c(S(=O)(=O)N2CCN(S(=O)(=O)N3CCOCC3)CC2)c(C)c1,-3,/,/,-0.8,/,
O=C(Cc1csc(N2CCOCC2)n1)N/N=C/c1ccccc1C(=O)O,-2,/,/,2.0,-10%,
COc1cc(OC)cc(-c2nc3cc(C)ccc3o2)c1,88,-21,0,4.9,-9%,
CC(C)(C)OC(=O)CNC(=O)c1[nH]cnc1C(=O)NCC(=O)OCc1ccccc1,-4,/,/,0.5,/,
Cc1cccc(OCC(O)CN2CCN(c3ccccn3)CC2)c1C (configuration not stated),0,/,/,-2.6,/,
Cc1cc(C(=O)OCC(=O)N2CCCC2)c2ccccc2n1,8,-23,5,-2.3,-17%,
CCc1ccccc1NC1=NCC(=O)N1C1CCCC1,16,/,-7,2.5,-5%,
Cc1cc(Cl)c(OCCCCNC(C)(C)C)c(Br)c1,10,-8,-15,-0.7,4%,
COC(=O)C1CCN(C(=O)c2sc3nc(-c4ccccc4)cn3c2C)CC1,-12,-16,4,-0.8,3%,
O=C(Nc1ccc(F)cc1)N1CCN(C/C=C/c2ccccc2)CC1,-4,-16,10,0.8,-13%,
CCSc1nnc2ccc(-c3cccs3)nn12,3,/,-6,-0.9,5%,
Cc1nc2ccccc2c2nc3ccccc3n12,2,-27,-7,-0.9,63%,Arbovirus anti repeat=-13
Cc1ccc(OCCCCN2CCCCC2)c(Br)c1,-6,-16,-31,0.0,16%,
O=C(c1sc2cc(F)ccc2c1Cl)N1CCN(c2ccccc2)CC1,4,-17,15,-3.7,-1%,
COc1ccc(C2C3=C(CCCC3=O)Nc3nc(-c4cc(OC)c(OC)c(OC)c4)nn32)cc1OC (configuration not stated),9,-48,0,-0.2,1%,
CCOc1ccccc1NC(=S)N1CCN(c2ccccc2F)CC1,-6,/,/,2.1,/,
O=C(CNc1ccc(F)cc1F)NC(=O)NCc1ccco1,-1,/,/,0.5,12%,
CN1CCC(OC(=O)COc2ccc(C(C)(C)C)cc2)CC1,47,-49,8,-0.3,/,
CCC(C(=O)OC)n1cnc2c(nnn2-c2cccc(Cl)c2)c1=O (configuration not stated),1,-49,0,1.1,-2%,Arbovirus anti repeat=-4
COC(=O)c1ccc(CNC(=O)CSc2nc3sc(C)c(C)c3c(=O)n2C)o1,-2,-35,15,0.4,-10%,
CC1Cc2ccccc2N1CC(=O)Nc1ccc(N2CCOCC2)cc1 (configuration not stated),0,/,7,-4.3,0%,
CCOc1nc2cnccc2n(CC(=O)Nc2ccccc2C(=O)OC)c1=O,-2,/,/,-0.8,/,
CC(=O)OC1CCC2C3CCC4=CC(=O)CCC4(C)C3CCC2(C)[C@]1(C)O (some centres not stated),-2,/,/,-3.5,-3%,
Cc1ccccc1/C=C/C(=O)c1ccc([N+](=O)[O-])o1,100,/,/,-23,/,
COc1ccc(N(Cc2cc3cccc(C)c3[nH]c2=O)S(C)(=O)=O)cc1,-1,-17,-8,-2.1,0%,
Cc1[nH][nH]c(=O)c1C(c1ccc(F)cc1)c1c(C)[nH][nH]c1=O,10,/,/,98*,/,
Cc1cc(NC(=O)CSc2nnc(-c3c[nH]c4ccccc34)n2-c2ccc(F)cc2)no1,-1,/,2,/,-5%,
COC(=O)c1ccc(CN(c2ccc(OC)cc2)S(=O)(=O)c2ccccc2)cc1,-1,/,/,-0.4,/,
CCc1cccc(NC(=S)N2CCC(c3ccccc3)C2)c1 (configuration not stated),-3,/,1,3.4,-1%,
COC(=O)CCC(=O)Nc1ccc(S(=O)(=O)Nc2cc(OC)nc(OC)n2)cc1,12,/,/,2.3,/,
Cc1noc(C)c1C(=O)N1CCCC(C(=O)c2ccc(Cl)cc2)C1 (configuration not stated),-16,/,7,0.1,0%,
Cc1cc(-c2nc(C)c(C(=O)NNS(=O)(=O)c3ccccc3)s2)no1,-2,/,/,-1.2,0%,
CN(C)c1cccc(C(=O)OCC(=O)NCc2ccco2)c1,-3,25,-2,0.1,-2%,
O=C(Nc1nc(-c2ccco2)c(-c2ccco2)s1)C1CCC1,14,-7,-2,6.9,3%,
CCOC(=O)C1CCN(Cc2ccc(OC)c(OCc3ccccc3)c2)CC1,0,/,/,-0.4,/,
CCn1ccnc1CN(C)C(=O)c1ccc(OC2CCN(CCc3ccccc3)CC2)cc1,-3,/,/,0.6,/,
OC(CNCCC(c1ccccc1)c1ccccc1)COc1ccccc1 (configuration not stated),68,/,-31,7.5,67%,
CC(Nc1nc(-c2cccc(Br)c2)cs1)c1nc2cc(Cl)c(N3CCCCC3)cc2n1CCOCCO (configuration not stated),-6,/,/,1.3,/,
O=C(COc1ccc(S(=O)(=O)N2CCOCC2)cc1Cl)NCCN1CCOCC1,-3,/,/,1.2,/,
O=C(Nc1cc(Cl)ccc1-n1cncn1)c1cccs1,-16,/,/,-9.1,/,
COC(=O)C1CN(C(=O)C(C)Oc2ccccc2Cl)c2ccccc2O1 (configuration not stated),4,/,/,-1.7,/,
Cc1ccc(NC(=O)C(c2ccccc2)N(C)C)cc1Cl (configuration not stated),-3,/,-3,4.7,1%,
Cc1ccccc1-n1c(SCC(=O)NC(N)=O)nc2sc(-c3ccccc3)cc2c1=O,-1,11,7,-0.3,59%,
CC(=O)N1CCN(c2ccc(NC(=O)c3ccc(OCc4ccccc4)cc3)cc2)CC1,49,/,0,-4.4,4%,
O=C(COC(=O)c1cccs1)NCCN1C(=O)CSC1=O,-10,1,-5,-0.3,-5%,
COc1ccc(OC)c(/C=C/C(=O)OCC(=O)Nc2cccc(C(C)=O)c2)c1,20,-27,0,-1.8,2%,
COc1ccccc1N1CCN(C(=O)C2CCN(S(=O)(=O)c3ccccc3)CC2)CC1,6,-29,0,3.2,1%,Arbovirus anti repeat=6
C=CCN1C(=O)C(Cc2ccc(F)cc2)S/C1=N/N=C/c1ccco1 (configuration not stated),-4,-23,9,-3.3,5%,
COC(=O)c1ccc(-c2ccc(C(c3c(C)[nH][nH]c3=O)c3c(C)[nH][nH]c3=O)o2)cc1,5,/,5,95*,4%,
O=C(Nc1ccc(Cc2nc3ccccc3s2)cc1)c1ccncc1,2,/,/,1.8,/,
CCCN1CCCc2cc(CN(CCCN3CCOCC3)C(=O)Nc3ccc(OCC)cc3)ccc21,-6,9,-5,-2.0,3%,
Cn1c(SCC(=O)N2CCCC2)nc2cccnc21,1,/,0,-1.7,0%,
COc1cc(C)c(NC(=S)Nc2ccc(C)c(Cl)c2)cc1OC,74,-10,13,-0.1,79%,
N#Cc1c2n(c3c(=O)n(Cc4ccc(Cl)cc4)cnc13)CCCCC2,6,-47,2,-10,4%,
NC(=O)CC(NC(=O)Cc1ccc(Cl)cc1)c1ccc(NCCc2ccccc2F)c([N+](=O)[O-])c1 (configuration not stated),-7,/,/,4.1,-7%,
O=C(NCCOc1ccc(F)cc1)c1ccccc1SCc1ccccc1,77,-37,-36,6.9,14%,
CN(C)c1oc(/C=C/c2cccs2)nc1S(=O)(=O)c1ccccc1,-2,/,/,-6.9,/,
CCc1ccccc1NC1=NCC(=O)N1Cc1ccccc1,0,-54,-3,0.9,0%,
CCCCNCC#CCOc1cc(C)ccc1C(C)C,0,/,-1,-2.6,8%,
Cc1[nH]c(=O)cc2ccccc12,-13,-20,-3,-2.8,-6%,

# Ordered by number of heavy atoms (lowest first): part of the list above.
SMILES,Mtb bLac sens,YopH PTP inh,Arbovirus anti,RecA splice inh,Mtb growth,others
Cc1[nH]c(=O)cc2ccccc12,-13,-20,-3,-2.8,-6%,
Cc1ccccc1/C=C/C(=O)c1ccc([N+](=O)[O-])o1,100,/,/,-23,/,
CCc1ccccc1NC1=NCC(=O)N1C1CCCC1,16,/,-7,2.5,-5%,
COC(=O)C1CN(C(=O)C(C)Oc2ccccc2Cl)c2ccccc2O1 (configuration not stated),4,/,/,-1.7,/,

# (further entries)
SMILES,Mtb bLac sens,YopH PTP inh,Arbovirus anti,RecA splice inh,Mtb growth,others
CC1=C(C(=O)Nc2ccccc2C)C(c2cccs2)NC(=S)N1 (configuration not stated),-9,-26,3,-0.1,-1%,
CCOC(=O)C1CCCN(Cc2nc(Cc3ccccc3Cl)no2)C1 (configuration not stated),0,/,4,-0.8,8%,
COC(=O)CCCC1=CC2=C(c3ccccc3)C(=O)C(C)(OC(=O)C3CCCC3)C(=O)C2=CN1CC1CC1 (configuration not stated),-7,/,/,24,12%,
CCNCc1ccccc1OCc1ccccc1,11,/,-2,-0.1,3%,
COc1ccc(-c2noc(C(C)NC(=O)c3ccco3)n2)cc1OC (configuration not stated),-1,/,/,1.5,/,
Cc1ccc(NC(=O)C2CCCN(c3ncccn3)C2)cc1C (configuration not stated),2,/,/,1.4,/,
Cc1ccc(N2C(=O)CC(N3CCc4ccccc43)C2=O)cc1Cl (configuration not stated),-3,/,6,1.8,2%,
CCCCN(C(=O)c1cccc2c(=O)c(C)c(-c3ccccc3)oc12)c1ccccc1,/,-19,-31,33*,6%,
O=C(NC(C(=O)N1CCCC1C(=O)O)=C1CCCCC1)c1ccccc1 (configuration not stated),-6,-2,6,-0.1,-3%,
CCOC(=O)C1=C(N)N2C(=O)C(C)SC2=C(C(=O)OCC)C1c1ccccc1 (configuration not stated),-2,-26,8,-0.6,2%,
C[C@H](NC(=O)c1ccccc1Cl)C(=O)OCC(=O)NNC(=O)c1cccs1,-3,/,/,0.1,/,
Cc1cccc(C(=O)Nc2nnc(COc3ccccc3)s2)c1,3,/,2,-0.8,/,
Nc1nnc(CSCc2ccc(F)cc2)s1,37,-17,-1,/,2%,
Cc1nn2c(NCCCN(C)C)c3c(nc2c1-c1ccccc1)CCC3,98,-3,-27,0.3,46µM*,
Cc1ccc(S(=O)(=O)N(C)CCCC(=O)Nc2ccc(F)cc2)cc1,-4,/,2,0.6,-5%,
Cc1ccc(S(=O)(=O)NCCc2cn3nc(C)c(C)nc3n2)cc1C,5,/,/,-57,/,
Cc1ccc(NC(=O)C2CCCCC2C(=O)O)cc1C (configuration not stated),18,/,/,2.3,2%,
CC(NCc1ccc(Cl)c(Cl)c1)C(O)c1ccccc1 (configuration not stated),-10,-18,22,2.9,4%,
CC(=O)Nc1ccc(S(=O)(=O)N2CCN(Cc3nc4sc(C)c(C)c4c(=O)[nH]3)CC2)cc1,-3,/,/,-3.3,-6%,
Cc1ccc(NC(=O)NCc2cccnc2)cc1Cl,-7,/,/,1.0,/,
COc1ccc(Cn2c(=O)[nH]c3cc(C(=O)Nc4ccccc4C)ccc32)cc1,2,/,/,-0.5,/,

# In the list so far, 10 have a thiophene ring, fused or not:
SMILES,Mtb bLac sens,YopH PTP inh,Arbovirus anti,RecA splice inh,Mtb growth,others
CCSc1nnc2ccc(-c3cccs3)nn12,3,/,-6,-0.9,5%,
O=C(c1sc2cc(F)ccc2c1Cl)N1CCN(c2ccccc2)CC1,4,-17,15,-3.7,-1%,
COC(=O)c1ccc(CNC(=O)CSc2nc3sc(C)c(C)c3c(=O)n2C)o1,-2,-35,15,0.4,-10%,
O=C(Nc1cc(Cl)ccc1-n1cncn1)c1cccs1,-16,/,/,-9.1,/,
Cc1ccccc1-n1c(SCC(=O)NC(N)=O)nc2sc(-c3ccccc3)cc2c1=O,-1,11,7,-0.3,59%,
O=C(COC(=O)c1cccs1)NCCN1C(=O)CSC1=O,-10,1,-5,-0.3,-5%,
CN(C)c1oc(/C=C/c2cccs2)nc1S(=O)(=O)c1ccccc1,-2,/,/,-6.9,/,
CC1=C(C(=O)Nc2ccccc2C)C(c2cccs2)NC(=S)N1 (configuration not stated),-9,-26,3,-0.1,-1%,
C[C@H](NC(=O)c1ccccc1Cl)C(=O)OCC(=O)NNC(=O)c1cccs1,-3,/,/,0.1,/,
CC(=O)Nc1ccc(S(=O)(=O)N2CCN(Cc3nc4sc(C)c(C)c4c(=O)[nH]3)CC2)cc1,-3,/,/,-3.3,-6%,

# From PubChem BioAssay
